# Screening results as filed in PubChem BioAssay.
# HNF4A DNA FP: change in binding of human HNF4 alpha to DNA; 360,000 tested, 0.3% active; P41235; HNF4a-FITC DNA binding, fluorescence polarization, 1 h; activity change, % at 10 µM; AID 1224865; in the data active means activity change above about 30%, passing the limit was not always enough;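 further: controls were the assay level and a saturating level of protein; the project sought stronger binding though the title names inhibitors; some compounds called inactive have numbers as strong as hits; positive values seem to mean higher polarization but the record does not say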
# Target sequence (P41235 whole entry, looked up): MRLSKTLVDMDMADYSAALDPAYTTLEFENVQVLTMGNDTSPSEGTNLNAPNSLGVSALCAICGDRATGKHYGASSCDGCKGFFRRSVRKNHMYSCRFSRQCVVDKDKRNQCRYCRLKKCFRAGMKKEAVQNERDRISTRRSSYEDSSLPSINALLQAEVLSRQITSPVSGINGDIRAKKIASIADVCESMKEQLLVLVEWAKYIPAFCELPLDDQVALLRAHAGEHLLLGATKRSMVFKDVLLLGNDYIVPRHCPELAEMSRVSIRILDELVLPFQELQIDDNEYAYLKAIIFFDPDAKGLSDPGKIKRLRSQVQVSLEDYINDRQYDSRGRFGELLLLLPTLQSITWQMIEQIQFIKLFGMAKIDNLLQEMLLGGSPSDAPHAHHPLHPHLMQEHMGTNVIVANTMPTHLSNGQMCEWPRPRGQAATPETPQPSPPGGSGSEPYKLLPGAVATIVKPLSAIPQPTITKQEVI
# Calb FLC: affects C. albicans growth with fluconazole. C. albicans CaCi-2 (fluconazole-resistant clinical isolate) + fluconazole, Alamar Blue growth, 48 h. growth inhibition, % (no concentration beside the values). 300,000 tested, 0.57% active;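 active means most replicates above 75%; inconclusive means exactly half above 75%; inactive means most below 75%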;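 further: all wells also contain fluconazole at 8 µg/ml as a sub-toxic cotreatment; 0% = median of DMSO wells and 100% = median of geldanamycin control wells; wells of about 8 µL received 7.5 nL stock; the first replicate is given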
# B2AR ag: agonists of human beta-2 adrenergic receptor inducing internalization; AID 504454; Am2.2-beta2AR cells, FAP receptor internalization, flow cytometry; reference of the scale not given here; P07550; 340,000 tested, 0.43% active; response, % (concentration not given with the values);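 active means response above a set limit, near 3 SD of response in nonfluorescent compounds, cut at about 42% in these data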;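 further: stock transfer was 100 nL into about 11 µL; a reference agonist was the positive control; negative values mostly stem from fluorescent compounds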
# Target sequence (P07550 whole entry, looked up): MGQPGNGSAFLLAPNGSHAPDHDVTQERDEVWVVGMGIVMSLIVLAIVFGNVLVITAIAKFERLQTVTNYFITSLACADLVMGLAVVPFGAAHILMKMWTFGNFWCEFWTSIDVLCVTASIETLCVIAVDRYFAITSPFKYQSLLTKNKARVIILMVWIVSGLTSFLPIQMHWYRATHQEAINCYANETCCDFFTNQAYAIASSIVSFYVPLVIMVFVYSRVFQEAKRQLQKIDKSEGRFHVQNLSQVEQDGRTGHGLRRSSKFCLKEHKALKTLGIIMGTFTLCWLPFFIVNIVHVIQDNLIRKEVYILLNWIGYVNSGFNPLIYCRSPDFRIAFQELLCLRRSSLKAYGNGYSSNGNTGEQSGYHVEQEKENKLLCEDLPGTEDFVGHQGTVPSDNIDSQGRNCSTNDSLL
# ALR H2O2 inh: blocks human ALR sulfhydryl oxidase activity | P55789 | purified ALR, DTT oxidation, H2O2 HRP-luminol luminescence | inhibition, % (concentration not given with the values) | 290,000 tested, 3.8% active | AID 485317;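 active means mean and each replicate at 75% or more; inconclusive means only one of the two met; inactive means neither met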;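 further: stock transfer was 7.5 nL into about 7.5 µL; 0% = neutral wells and 100% = wells with inactivated enzyme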
# Target sequence (P55789 whole entry, looked up): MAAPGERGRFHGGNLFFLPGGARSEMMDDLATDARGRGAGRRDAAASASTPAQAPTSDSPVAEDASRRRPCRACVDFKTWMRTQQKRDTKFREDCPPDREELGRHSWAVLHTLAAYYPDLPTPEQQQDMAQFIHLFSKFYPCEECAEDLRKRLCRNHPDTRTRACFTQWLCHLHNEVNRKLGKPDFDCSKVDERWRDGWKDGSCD
# LANA-H2A inh: blocks KSHV LANA binding to histone H2A/H2B; inhibition, % (concentration not given with the values); AID 2629; 320,000 tested, 0.6% active; cell-free LANA-H2A/H2B peptide, fluorescence polarization; Q9QR71; in the data active means inhibition mostly above about 10%, no sharp cut-off; inactive means mostly below about 6.7%;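 further: stock transfer was 7.5 nL into about 10 µL; 0% = median of vehicle wells and 100% = median of positive control wells; one replicate is shown; the record names a cut of 25% in any replicate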
# Vif A3G: inhibitors of Vif binding to APOBEC3G peptide, primary screen, biochemical, TR-FRET, GST-Vif 1-94, biotin-A3G peptide, dose response retest (AID 1117319) | TR-FRET GST-Vif / biotin-A3G peptide binding; higher % means a stronger effect; test concentration not given here; strong numbers were not always called active | one-dose inhibition, %; IC50 in µM for titrated hits | 260,000 tested, 0.57% active;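 active means above the screen mean plus three standard deviations and confirmed in dose response; inconclusive means results disagree or hit not tested in dose response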;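 further: Vif residues 1-94 fused to GST binding biotinylated APOBEC3G peptide 110-148; 0% = full assay without inhibitor and 100% = GST in place of GST-Vif; retest series ran down from 100 µM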
# RanGTP-Impb inh: inhibitors of RanGTP-importin-beta interaction, primary screen, biochemical, FRET, CFP-Ran, YFP-importin-beta, homogeneous; cell-free CFP-Ran/YFP-importin-beta FRET ratio; inhibition, % (test concentration not listed); 300,000 tested, 1.1% active; AID 2216;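 active means most replicates above 15%; inconclusive means exactly half above 15%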;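 further: 0% = DMSO wells and 100% = Ran loaded with GDP instead of GTP; wells of about 40 µL received 100 nL stock; the first replicate is given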
# Numbers without * were called inactive; ? = inconclusive; / = not tested or not shown.
# Values in the order: Calb FLC, HNF4A DNA FP, Vif A3G, LANA-H2A inh, B2AR ag, RanGTP-Impb inh, ALR H2O2 inh
C/C(=N\Nc1nc(N2CCOCC2)nc(N2CCOCC2)n1)c1ccc([N+](=O)[O-])cc1
  0, 3.3, 10%, 2.4, 9, 0.5, 6
COc1cccc(C(=O)NCC(c2ccco2)N2CCc3ccccc3C2)c1 (stereo not given)
  0, -1.6, -2%, -1.8, 3, 1.8, 0
Cc1ccc(C(=O)N/N=c2\sc3ccccc3n2C)cc1
  5, 0.8, /, 1.9, -3, -0.3, 72
COc1ccc(OC)c(/C=C2\NC(=O)NC2=O)c1
  -6, 3.3, /, -0.9, -3, 0.6, 0
CC(=O)Oc1ccc2c(=O)oc(-c3ccc([N+](=O)[O-])cc3)nc2c1
  -7, 0.8, /, 2.2, 4, 2.6, 1
COc1cc(Cl)ccc1OCc1cc(C(=O)N(C)Cc2cn(C)nc2C)no1
  -1, -4.2, /, 3.0, 3, -2.2, -2
CN(CC1CCCN(CCc2ccccc2F)C1)C(=O)c1ccoc1 (stereo not given)
  3, -0.8, /, -1.1, 6, 0.5, 0
CCOC(=O)C1CCCN(C(=O)CSc2nnnn2C)C1 (stereo not given)
  /, 0.7, /, -2.8, 4, /, -9
COc1ccc(OC)c(-c2csc(NC(=O)COC(=O)C3CC3)n2)c1
  /, -0.1, -7%, 5.1, 4, /, -2
O=C(NNc1cc(Cl)ccc1Cl)c1cccs1
  -1, 3.5, /, -2.9, 9, 0.9, -3
COc1cc(/C=C2/SC(=O)NC2=O)ccc1Oc1ccc([N+](=O)[O-])cc1[N+](=O)[O-]
  14, 0.0, 12%, -5.1, 19, -6.1, 97*
Cc1cc(S(=O)(=O)Nc2ccc(C(=O)NCCCN3CCOCC3)cc2)ccc1F
  -6, -1.1, 0%, 0.8, 13, /, 6
N#C/C(=C\c1ccc[nH]1)C(=O)N1CCCCC1
  0, -1.2, -6%, 5.3, -5, -2.2, 3
COC(=O)c1ccc(NN=Nc2ccc(C)cc2)cc1
  -10, -0.4, 9%, /, 0, -1.3, /
CCOC(=O)N1CCN(S(=O)(=O)c2ccc(F)c(C(=O)Nc3ccc(C(C)C)cc3)c2)CC1
  3, -0.4, 15%, 5.2, -10, -3.2, -2
Cc1ccc(C(=O)OCc2cn(-c3ccccc3)nn2)cc1
  -1, 11, 17%, -0.6, 0, 1.9, -27
CCc1ccc(/C=N/n2c(C3CCCCC3)n[nH]c2=S)cc1
  -6, 4.2, -5%, -1.4, -5, 1.2, 0
COc1ccc(C(=O)NCc2nnc(SCC(=O)NCc3ccc(F)cc3)o2)cc1
  5, 3.8, 23%, 2.1, -4, 3.1, -3
Cc1nc2ccccc2cc1C(=O)NCc1ccccc1
  8, 0.5, /, -3.5, -4, 0.5, -2
CC(=O)c1cccc(NC(=O)C2CC(c3ccc(F)cc3)=NO2)c1 (stereo not given)
  -8, -0.7, -2%, -1.4, -7, -1.6, -9
COc1ccc(C(=O)Nn2c(C)nnc2-n2nc(C)cc2C)cc1OC
  -9, -0.1, -5%, 6.5, 1, -0.2, -7
O=C(CN1CCN(Cc2ccccc2Cl)C1=O)NCc1ccccn1
  0, 0.2, -1%, 0.1, 6, -1.1, /
COc1cccc(-c2cc(C(F)(F)F)n3nc(C(=O)Nc4c(C)n(C)n(-c5ccccc5)c4=O)cc3n2)c1
  6, 3.2, -4%, 2.4, -5, 13, 0
OC(c1nc2ccc(F)cc2[nH]1)C(O)c1nc2ccc(F)cc2[nH]1 (stereo not given)
  -2, 1.1, 0%, -1.2, -4, ?, -24
Cc1ccc(CNC(=O)c2cccc(OCc3c(C)noc3C)c2)cc1
  ?, -0.3, -2%, -1.9, 0, -2.2, -2
N#C/C(=C\c1ccncc1)c1nc2ccccc2c(=O)[nH]1
  20, 2.0, 10%, 1.8, 2, 6.5, 7
CC(C)CCNC1c2ccccc2C(=O)N1Cc1ccccc1 (stereo not given)
  -26, -1.2, /, -2.2, -5, ?, 1
O=C(O)CCC(=O)Nc1ccc(S(=O)(=O)N2CCCC2)cc1
  -3, -1.1, 27%, 4.1, -1, 3.9, -13
Cc1onc(-c2ccccc2)c1C(=O)OCC(=O)c1ccccc1
  -3, -1.9, 7%, 2.7, -2, -0.5, -3
COCCn1c(N)c(C(=O)NCC2CCCO2)c2nc3ccccc3nc21 (stereo not given)
  30, -1.2, 4%, 3.0, 10, 94*, 22
Cc1ccc(Cl)cc1N1CCN(CC(=O)Nc2ccc3[nH]c(=O)[nH]c3c2)CC1
  12, -2.3, -1%, 6.3, -1, 3.4, -8
Cc1ccc(C(=O)Nc2ccc(N3CCN(S(C)(=O)=O)CC3)cc2)cc1
  0, -0.4, 1%, -0.4, -2, 1.5, -2
NC(=O)COc1ccc(Nc2nnc(-c3ccc(O)cc3)c3ccccc23)cc1
  -3, -2.6, ?, 19*, -1, 8.4, 99*
N#Cc1c(N)n(-c2cccc(C(=O)O)c2)c2nc3ccccc3nc12
  -19, 21, 7%, 3.6, -19, ?, -51
COc1ccc(CCNC(=O)C(=O)NCC2OCCN2S(=O)(=O)c2ccc(F)cc2)cc1 (stereo not given)
  -8, 7.9, /, 1.3, 4, -1.3, 0
CC1C(C#N)=C(SCC(N)=O)NC2=C1C(=O)CC(C)(C)C2 (stereo not given)
  -16, 1.6, 2%, 3.9, 9, -1.4, 46
Nc1nonc1-c1nc2ccccc2n1CC(=O)N1CCN(c2ccc(F)cc2)CC1
  1, 6.9, 7%, -2.9, 0, 3.8, -12
C[C@H](CO)N1C[C@H](C)[C@@H](CN(C)Cc2ccc(C(=O)O)cc2)Oc2ccc(NC(=O)Cn3cnnn3)cc2C1=O
  /, 1.6, -2%, /, 0, /, /
Cc1ccc(-c2c(C(=O)N(C)Cc3ccccc3)oc(=O)c3ccccc23)cc1
  26, -1.4, -3%, /, 3, -1.6, /
Cc1ccc(-c2nnc(-c3ccccc3)c(-c3ccccc3)n2)cc1
  2, -1.6, /, -0.6, 10, 4.2, /
O=C1C=C(Nc2ccc(O)cc2)C(=O)c2ccccc21
  -4, 3.3, -8%, -1.7, -8, -1.2, /
COC(=O)C1CCN(Cc2cn(Cc3ccccc3)nc2-c2cc3ccccc3o2)CC1
  3, 2.2, 10%, -1.6, 3, -2.4, -15
COc1ccc(-c2csc(NC(=O)c3ccccc3Br)c2C(=O)O)cc1
  0, -2.7, -5%, -1.5, -2, -5.1, 60
Cc1cc(N=Nc2ccc3ccccc3c2)ccc1O
  -4, -2.3, 3%, -6.8, 7, -3.2, 86*
C=CCNc1nc(NC(C)(C)CO)nc(OCC)n1
  -10, -0.8, -1%, -1.1, 6, ?, -12
O=C(NC12CC3CC(CC(C3)C1)C2)c1cnccn1
  -2, -13, 11%, 2.9, -4, -0.6, /
COc1ccc(C2CC(c3ccc4ccccc4c3)=NN2C(=O)COC(=O)C2CCC(=O)N2)cc1 (stereo not given)
  32, 3.1, 10%, -0.1, -1, 1.3, /
Cc1ccc(S(=O)(=O)N2CCOCC2)cc1NC(=O)CN1CCN(c2ccc(O)cc2)CC1
  0, -2.5, ?, -0.8, -6, -3.8, 97*
Cc1ccc(S(=O)(=O)Nc2ccc3c(c2)c2c(n3S(=O)(=O)c3ccc(C)cc3)CCCC2=O)cc1
  9, -2.4, 70%, 3.4, 1, -0.1, -1
Cc1nc(=S)c2c([nH]1)-c1ccccc1CC21CCCCC1
  -2, 0.0, -9%, -6.6, 1, -1.9, -2
CCO[C@H]1OC(C(=O)Nc2ccccc2)=C[C@@H](C)[C@@H]1CCCO
  -15, -7.1, -9%, 0.6, 9, 0.8, -9
O=C(NNC(=O)C1CCN(S(=O)(=O)c2ccccc2)CC1)c1ccccc1O
  -13, -1.3, /, 5.6, 10, -3.7, 0
CN(C)c1ccc(NC(=O)CSc2nc(C3CC3)nc3ccccc23)cc1
  -5, -0.2, -6%, -1.6, -16, 1.9, /
C#CCOCCOCCOCCNc1nc(N2CCOCC2)nc(N2CCN(C(=O)CCCCCCCCCCNC(=O)[C@H](CO)n3cc(CCCSC)nn3)CC2)n1
  /, -0.8, /, 2.5, -2, /, -38
CCN1CCN(C(=O)c2cc(COc3ccc(F)cc3F)on2)[C@@H](C)C1=O
  3, 3.9, /, -0.3, 1, 3.5, -3
CC12CC3CC(C)(C1)CC(C(=O)NC1=NCCS1)(C3)C2
  -1, 3.8, -3%, 11, -1, 2.2, -4
O=C(CCc1nnc(CCCCc2ccccc2)o1)NCCCc1cccnc1
  -2, 0.6, /, 3.4, 1, -11, -7
CC(NC(=O)COc1ccccc1Cl)c1ccccc1 (stereo not given)
  -3, -2.8, -6%, -0.4, 6, -2.1, -9
CCCN(C(=O)CCCSc1nc2ccccc2[nH]1)c1c(N)n(Cc2ccccc2)c(=O)[nH]c1=O
  13, -1.1, 10%, 1.4, -5, 4.7, -3
COc1ccc(C(CC(=O)NC(C)c2ccc(-c3ccccc3)cc2)NC(C)=O)cc1 (stereo not given)
  -4, 0.4, 4%, 2.3, 2, 2.3, 0

# Further records:
# Values in the order: Calb FLC, HNF4A DNA FP, Vif A3G, LANA-H2A inh, B2AR ag, RanGTP-Impb inh, ALR H2O2 inh
O=C(CCN1CCN(CCO)CC1)Nc1cccc(Br)c1
  19, 0.8, ?, 0.8, -2, -1.2, -1
O=C(NCc1cccnc1)c1ccc(COc2ccccc2Cl)o1
  -8, -1.0, /, 4.1, -8, -1.4, 1
CCOc1ccc(OCc2ccc(C(=O)NCc3cccnc3)o2)cc1
  -13, -0.8, -3%, 0.5, 21, -4.8, -16
O=C(Nc1ccc(N2CCN(C(=O)c3ccco3)CC2)c(Cl)c1)c1c(F)c(F)c(F)c(F)c1F
  1, -1.2, 0%, -2.0, 5, 3.7, 2
CCCc1nc2ccc(NC(C)=O)cc2c(=O)n1Cc1ccc(Cl)cc1
  4, -2.2, -12%, -1.8, -7, 1.0, -4
CC(C)c1ccccc1OCC(=O)Nc1cc(S(=O)(=O)N2CCOCC2)ccc1N1CCCC1
  0, 5.0, 0%, 3.9, 7, 2.1, -2
Cc1cccc(C(=O)Nc2ccc(C(=O)N/N=C/c3ccc(C)o3)cc2)c1
  -6, -0.2, /, 1.6, 11, -3.2, 0
Cc1ccc(S(=O)(=O)N2CCC(C(=O)OCC(=O)NCCc3ccccc3)CC2)cc1C
  -5, -1.6, -1%, 1.2, 4, /, -1
Cc1ccc(S(=O)(=O)CCC(=O)OCC(=O)N2CCN(S(=O)(=O)c3ccc(Cl)cc3)CC2)cc1
  -4, 1.9, -8%, -3.8, 10, 0.3, -1
CC(c1ccccc1C(O)(c1ccccc1)c1ccccc1)N(C)C (stereo not given)
  -28, 3.2, ?, 1.9, -56, -0.1, /
CCOC(=O)c1[nH]c2ccccc2c1NC(=O)c1cc(OC)c(OC)c(OC)c1
  17, 0.8, -10%, 10, -1, -1.8, -3
CCn1nc(C)cc1C(=O)N1CCCC(N2CCN(Cc3ccc4c(c3)OCO4)CC2)C1 (stereo not given)
  0, -6.4, /, -0.1, -1, -0.1, 1
Cc1cccc(NC(=O)COC(=O)CCc2ccccc2)c1C
  0, -4.3, /, -4.6, 4, 0.0, -9
CCn1c(CNC(=O)c2ccccc2F)nnc1SCC(=O)Nc1nncs1
  0, 0.5, /, 0.1, -2, 2.6, -1
O=C(Nc1nc2c(s1)CCCC2=O)c1cnccn1
  -3, -0.7, 1%, -4.4, -2, -1.8, 0
Nc1nc(NCc2ccco2)nc(Nc2cccc(F)c2)c1[N+](=O)[O-]
  8, 0.1, /, -8.1, -3, -0.3, 33
C/C(=N\NC(=O)Cc1cccn1C)c1ccc([N+](=O)[O-])cc1
  3, -3.0, 11%, -0.6, -6, -0.6, 4
COc1ccc(C(C)NC(=O)c2ccoc2C)cc1OC (stereo not given)
  -25, 2.2, 31%, -14, 9, ?, 8
